# NS1 inh – inhibitors of influenza NS1 protein function | AID 2326 | hit rate 0.4% among 270,000 | S. cerevisiae slowed by influenza A NS1, growth recovery by OD600 | Potency, µM (series often up to 46.1 µM), without a hit: top-dose activity, positive = more growth; active means well fitted rising curve with a large enough effect; inconclusive means small, poorly fitted or top-dose-only effect; inactive means no such curve, though single readings can be large or run the other way; also: nearly all actives have a fitted effect of over 50% in size
#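 Read-out: OD600 growth recovery of NS1-expressing budding yeast. Cells grown overnight at 30C in -URA glucose medium, washed, resuspended and diluted 1:100 in 2% galactose assay medium, pH 6.0. Same strain lacking NS1 served as positive control.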
# RE007 growth inh – less growth of the S. pombe RE007 Vpr strain. Potency, µM (titrated, usually from 92.2 µM), for inactives: at the highest dose activity change, negative = less growth. hit rate 0.21% among 360,000. S. pombe RE007 Vpr strain, BacTiter-Glo ATP luminescence, 24 h; control for the full effect not named in the record; active = well fitted falling curve with a large enough effect; inconclusive = small, poorly fitted or top-dose-only effect; inactive = no such curve, though single readings can be large or run the other way;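 also: % is scaled to controls: 0 for no effect and ±100 for the full control effect; nearly all actives have a fitted effect of over 50% in size; the assay follows cell death caused by Vpr and the record does not say whether a fall means rescue or toxicity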
#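 Fission yeast RE007 carrying one integrated HIV-1 vpr copy, seeded at OD 0.01 in PMG+AL medium with 23 nL pinned compound. Grown 24 h at 30 degrees; viability read by BacTiter-Glo luminescence after 5 min.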
# LASV entry inh – Lassa virus entry inhibition. Potency, µM (doses to about 37.9 µM), for the others: at the highest dose activity change, negative = inhibition, actives largely listed as inhibitors. hit rate 1.2% among 300,000. Lassa virus pseudotype entry inhibition, cell reporter; control for the full effect not named in the record; active means well fitted inhibition curve with a large enough effect; inconclusive means small, poorly fitted or top-dose-only effect, or effect the other way; inactive means flat fitted curve, though single readings scatter; tested in HEK293 cells; also: % is scaled to controls: 0 for no effect and ±100 for the full control effect; nearly all actives have a fitted effect of over 50% in size; luciferase read-out
# StopGo reporter – FMDV 2A StopGo reporter, luciferase signal. human cells with a luciferase reporter of 2A StopGo recoding; control for the full effect not named in the record. Potency, µM (titrated, usually from 57.9 µM), without a hit: at the top dose signal change, negative = less light. hit rate 1.2% among 410,000. AID 1159524; active = well fitted falling curve with a large enough effect; inconclusive = small, poorly fitted or top-dose-only effect; inactive = no such curve, though single readings can be large or run the other way; tested in HEK293T cells; also: % is scaled to controls: 0 for no effect and ±100 for the full control effect; nearly all actives have a fitted effect of over 45% in size; luciferase light after 4 h
# Cruzain inh noDet – inhibitors of Trypanosoma cruzi cruzain without detergent. P25779. purified cruzain, Z-FR-AMC fluorescence, no detergent. Potency, µM, without a hit: max response, negative = inhibition, actives largely listed as inhibitors. hit rate 2.3% among 200,000;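 also: plate controls were enzyme without inhibitor for no effect and buffer without enzyme for full effect; nearly all actives have a fitted effect of over 40% in size; top concentration of the series not given in the record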
# Target sequence (P25779 123-467 limits assumed): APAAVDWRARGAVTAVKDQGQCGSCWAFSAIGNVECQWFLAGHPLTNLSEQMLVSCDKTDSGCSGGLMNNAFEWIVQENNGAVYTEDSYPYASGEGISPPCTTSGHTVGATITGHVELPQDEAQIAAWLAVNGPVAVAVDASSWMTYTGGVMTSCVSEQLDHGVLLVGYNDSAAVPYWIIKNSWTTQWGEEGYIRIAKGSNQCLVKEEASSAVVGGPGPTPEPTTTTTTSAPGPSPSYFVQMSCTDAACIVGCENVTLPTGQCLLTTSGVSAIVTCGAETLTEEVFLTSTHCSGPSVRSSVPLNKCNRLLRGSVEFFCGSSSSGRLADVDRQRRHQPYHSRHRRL
#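 Purified cruzain at 1.5 nM, pre-incubated 15 min with compound at room temperature in 100 mM sodium acetate pH 5.5, 5 mM DTT, 0.00005% Triton X-100. Reaction started with 2 uM Z-FR-AMC; AMC fluorescence increase over 60 s gives rate.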
# Cruzain Triton – inhibitors of Trypanosoma cruzi cruzain with detergent; P25779; Potency, µM, without a hit: max response, negative = inhibition, most hits filed as inhibitors; hit rate 0.43% among 200,000; purified cruzain, Z-FR-AMC fluorescence, 0.01% Triton;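 also: plate controls were neutral wells for no effect and buffer without enzyme for full effect; nearly all actives have a fitted effect of over 40% in size; top concentration of the series not given in the record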
#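 Cruzain (1.5 nM) preincubated 15 min at RT with compound in 100 mM sodium acetate pH 5.5, 5 mM DTT, 0.01% Triton X-100. Reaction started with 2 uM Z-FR-AMC; AMC fluorescence (ex 360/em 450 nm) change over 60 s gave rate.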
# SARS PLpro yeast – blocks SARS-CoV papain-like protease in a yeast assay; S. cerevisiae expressing SARS-CoV PLpro, growth rescue; control for the full effect not named in the record; Potency, µM (highest dose often 32.9 µM), inactives show at the highest dose activity, positive = growth rescue; hit rate 0.19% among 330,000; AID 485353; active means well fitted rising curve with a large enough effect; inconclusive means small, poorly fitted or top-dose-only effect; inactive means no such curve, though single readings can be large or run the other way; also: 0% is about no effect; nearly all actives have a fitted effect of over 55% in size; growth read by luminescence after 48 h
# MARV entry inh – inhibitors of Marburg virus binding or cell entry; Potency, µM (top dose mostly 37.8 µM), for the others: at the highest dose activity change, negative = inhibition, most hits filed as inhibitors; Marburg virus pseudotyped entry inhibition, cell reporter; control for the full effect not named in the record; about a third of the inactives were read at about 46 µM; AID 540276; hit rate 1.8% among 300,000; active = well fitted inhibition curve with a large enough effect; inconclusive = small, poorly fitted or top-dose-only effect, or effect the other way; inactive = flat fitted curve, though single readings scatter; tested in HEK293 cells; about a fifth of its hits are not listed in these tables; also: % is scaled to controls: 0 for no effect and ±100 for the full control effect; luciferase read-out
# Active calls of the source: *; ? = inconclusive; . = not tested or not shown; & = joins results of further samples; [ ] = dose if it differs, or a comment. Unless noted, calls follow the shape of the dose curve; as a rule, active = well fitted curve in the direction sought with a large enough effect; inconclusive = small, poorly fitted or top-dose-only effect, or another doubt; inactive = no such curve, though single readings can be large; an effect the other way counts as inactive or inconclusive. Potency is read from the fitted curve at half-maximal effect.
SMILES,NS1 inh,RE007 growth inh,LASV entry inh,StopGo reporter,Cruzain inh noDet,Cruzain Triton,SARS PLpro yeast,MARV entry inh
O=C1NC(=O)C2(C(=O)N1)C(c1ccc(F)cc1)NC(=S)NC2c1ccc(F)cc1 (stereo not given),3%,-6%,-14%,-21%,-6%,4.0%,-4%,-6%
COc1ccc(N2CCN(C(=O)Cc3ccc(OC)c(OC)c3)CC2)cc1,2%,-14%,?,?,.,.,5%,-1%
COc1ccc(S(=O)(=O)N2CCCCC2)cc1C(=O)Nc1cccc(C(F)(F)F)c1,.,.,-6%[46.1 µM],-11%,-1%,-0.6%,.,.
O=C(Cc1coc(-c2ccc(F)cc2)n1)NC1CCCCC1,-1%,-6%,2%,0%,14%,3.6%,2%,-9%
COc1cc(CNCCCN2CCOCC2)ccc1OCC(=O)NC(C)(C)C,.,1%,1%,-7%,.,.,-1%,5%[46.1 µM]
CCCc1cc(=O)oc2c(C)c(O)c(CN3CCCCC3)cc12,3%,-8%,13%,-5%,12%,?,12%,8%
c1ccc2nc(C3=NCCN3)ccc2c1,3%,.,?,13%,-3%&3%,1.8%&-0.3%,.,9%&12%&9%&9%&9%
CC(=O)Nc1ccc(S(=O)(=O)NCCS(=O)(=O)N2CCN(c3ccccc3)CC2)cc1,2%,15%,.,-30%,.,.,-2%,.
COc1cc(NC(=O)c2cc(-c3ccccc3)on2)cc(OC)c1OC,-10%,12%,.,-20%,.,.,5%,.
CCCN(CCC)CC(O)CN(c1cc([N+](=O)[O-])ccc1OC)S(=O)(=O)c1ccccc1 (stereo not given),12%,-1%,-17%,3%,-9%,-1.9%,1%,?
Cc1cc(NCCCn2ccnc2)n2nc(-c3ccc(Cl)cc3)cc2n1,2%,-4%,11%,12%,.,.,-2%,-15%
Cc1ccc2c(c1)C(c1ccccc1)N(C(=O)COc1ccc(Cl)cc1Cl)CC(=O)N2 (stereo not given),.,.,?,?,?,-7.5%,.,?
O=C(Nc1ccc(N2CCCC2)cc1)c1cccc(-c2cc3ccccc3oc2=O)c1,?,?,?,0%,4µM*,-16%,-2%,?
Cc1nc([N+](=O)[O-])c(SCC(O)CCl)n1Cc1ccc(Cl)cc1 (stereo not given),1%,11%,0%,-16%,.,.,0%,?
COc1ccccc1NC(=S)N(CCCN(C)C)Cc1cc2cc3c(cc2[nH]c1=O)OCO3,-7%,-7%,.,-11%,.,.,1%,?
Cc1cc2ccccn2c1C(C[N+](=O)[O-])c1ccc(N(C)C)cc1 (stereo not given),?,-15%,0%,-18%,25µM*,-9.7%,0%,?
Cc1cc(N)n(-c2ccc3ccccc3c2)n1,24%,-5%,-3%,30%[activator],-1%,3.8%,25%,-28%
Cc1sc2ncnc(N3CCC(C(=O)Nc4nnc(SCc5ccccc5F)s4)CC3)c2c1C,.,22%,2%,0%,.,.,-4%,?
CC(=O)c1cccc(NC(=S)N2CCN(CCN3C(=O)c4cccc5cccc(c45)C3=O)CC2)c1,.,2%,4%[46.1 µM],-12%,.,.,1%,?
Cc1[nH]c2ccccc2c1C(=O)CSc1nc2ccccc2c(=O)n1CCCN1CCOCC1,4%,9%,-23%,?,27%,-2.0%,4%,11µM*

# Structures listed so far that contain two or more sulfur atoms, in the order listed:
SMILES,NS1 inh,RE007 growth inh,LASV entry inh,StopGo reporter,Cruzain inh noDet,Cruzain Triton,SARS PLpro yeast,MARV entry inh
CC(=O)Nc1ccc(S(=O)(=O)NCCS(=O)(=O)N2CCN(c3ccccc3)CC2)cc1,2%,15%,.,-30%,.,.,-2%,.
Cc1sc2ncnc(N3CCC(C(=O)Nc4nnc(SCc5ccccc5F)s4)CC3)c2c1C,.,22%,2%,0%,.,.,-4%,?

# New compounds follow
SMILES,NS1 inh,RE007 growth inh,LASV entry inh,StopGo reporter,Cruzain inh noDet,Cruzain Triton,SARS PLpro yeast,MARV entry inh
COc1cc(OC)c(/C=N/NC(=O)c2ccc(NC(C)=O)cc2)cc1Br,.,3%,11%,5%,.,.,0%,?
CCOc1cc2[nH]c(=O)n(CCCCC(=O)N3CCN(c4cccc(Cl)c4)CC3)c(=O)c2cc1OCC,.,.,?,25µM*,10%,3.7%,.,.
CCOC(=O)C(CC(=O)O)N1CCCCC1 (stereo not given),-2%,5%,23%,3%,-6%,12%,1%,2%
Cc1nc(N2CCOCC2)c2c(C(=O)N3CCN(c4ccccc4F)CC3)c(C)oc2n1,.,.,13%[46.1 µM],23%,18%,0.0%,.,.
O=C(NCC1CCCO1)c1ccc(/C=N/O)nc1 (stereo not given),0%,4%,-4%,1%,6%,2.7%,-15%,?
COc1cccc(S(=O)(=O)NCc2ccc3c(c2)OCO3)c1,-6%,-8%,0%,29%,-3%,-1.0%,0%,3%
Cc1cc(C)c(S(=O)(=O)N2CCN(C(=O)C(C)Cn3nc(C)nc3C)CC2)c(C)c1 (stereo not given),-2%,3%,1%,-10%,.,.,0%,-9%[46.1 µM]
CN1C(=O)CCC2(C)C1=CCC1C2CCC2(C)C1CCC2(C)O (stereo not given),.,-1%,-5%[46.1 µM],-8%,.,.,.,21%[46.1 µM]
O=C(c1ccc(Br)cc1)N(Cc1cccs1)c1ccc(F)cc1,.,.,10%[46.1 µM],-15%,12%,-4.8%,.,-29%[46.1 µM]
Cn1cnnc1SCC(=O)Nc1ccc(S(N)(=O)=O)cc1,7%,-7%,.,-1%,.,.,-4%,.
O=[N+]([O-])c1ccc(OCc2nnc(-c3ccccc3)o2)cc1,-6%,5%,?,7%,.,.,-2%,?
COc1ccc(CCNCc2ccc(SC)cc2)cc1,-5%,9%,17%,.,-7%,0.7%,2%,?
Cc1ccc(NC(=O)COC(=O)CNC(=O)c2ccc(C)s2)cc1,.,14%,0%,-4%,.,.,6%,?
Cc1cc(C)cc(OCC(=O)Nc2cc(C)on2)c1,-3%,10%,17%[46.1 µM],14%,.,.,2%,2%[46.1 µM]
COc1ccccc1NC(=O)c1sc2nc(-c3ccco3)ccc2c1N,-32%,9%,2%,-1%,?,-2.2%,-11%,?
O=C(Nc1ccc([N+](=O)[O-])cc1)C1CC1(c1ccccc1)c1ccccc1 (stereo not given),1%,25%,-8%,-22%,5%,-8.6%,20%,.
CCCn1c(=NC(C)=O)c(C(=O)OCC)cc2c(=O)n3ccccc3nc21,-18%,-16%,14%,.,?,-14%,7%,-1%
CCOC(=O)c1c(C)[nH]c(C)c1C(=O)CSc1nc2ccccc2[nH]1,-6%,18%,-15%,-10%,-1%,-12%,-11%,?
CCOC(=O)C1CCN(C(=O)c2ccc3c(c2)C(=O)N(c2ccccc2C)C3=O)CC1,.,6%,?,17%,.,.,4%,29%
CC(C)COC(=O)C1C2C=CC3(CN(C4CCCC4)C(=O)C13)O2 (stereo not given),0%,-4%,.,-22%,-1%,-0.2%,1%,.
COc1cc(/C=N/NC(=O)CC2C(=O)NN=C2C)ccc1O (stereo not given),6%,-19%,.,-12%,.,.,1%,.
CCc1cc2c(cc3c(=O)n(CC(=O)N4CCN(c5cc(Cl)ccc5C)CC4)nc(CC)n32)s1,.,.,.,-9%,1%,1.4%,.,3%[46.1 µM]
CCC1=NN2C(=N)/C(=C/c3cc(C)n(-c4ccccc4)c3C)C(=O)N=C2S1,4%,-6%,18%,-6%,.,.,1%,0%
CC(NC(=O)c1ccc2nc(CCc3ccccc3)oc2c1)c1ccccc1 (stereo not given),.,.,-8%[46.1 µM],-3%,1%,2.0%,.,.
Cc1ccc(C(=O)Nc2cccc3ncccc23)cc1[N+](=O)[O-],1%,7%,.,4%,.,.,1%,.
O=C1CCCC2=C1C(c1ccsc1)CC(=O)N2c1ccccc1 (stereo not given),0%,12%,5%,27%,-5%,1.1%,5%,0%
Cc1c(C(=O)N2CCC(C)CC2)c(S(=O)(=O)NCc2ccccc2)c(C)n1C,.,.,-1%[46.1 µM],72%[activator],-5%,0.2%,.,.
CCOC(=O)C1CCCN(C(=O)C2CCN(c3nnc(-n4cccc4)s3)CC2)C1 (stereo not given),-2%,-11%,-14%,?,5%,-2.0%,-2%,27%
CCN(CC)c1ccc2cc(-c3nc(-c4cccs4)no3)c(=O)oc2c1,.,.,-2%[46.1 µM],24%,-15%,-0.5%,.,.
Cc1cc(C(=O)Nc2cccc(O)c2)co1,1%,13%,6%,19%,-1%,1.8%,3%,-2%
CC(=O)c1ccc(NC(=O)CSc2cn[nH]n2)cc1,2%,-7%,3%[46.1 µM],12%,.,.,2%,4%[46.1 µM]
Cc1nc2sc3c(c2c(=O)o1)CCC3,-10%,-11%,13%,-15%,-12%,2.0%,-9%,?
COc1cccc(CNC(=O)CCC2CCCN(C(=O)c3cc4ccccc4o3)C2)c1 (stereo not given),-5%,-16%,?,2%,.,.,0%,11µM*
CCN(CC)CC(O)c1ccc(C2CCCC2)cc1 (stereo not given),2%,-7%,?,-12%,-1%,-0.2%,4%,?
CCn1c(SCc2nc3ccccc3[nH]2)nnc1-c1cccnc1,4%,8%,1%,6%,1%,0.3%,8%,0%
CSCC[C@H](NC(=O)c1cccnc1)c1nnc2ccccn12,7%,-8%,?,14%,.,.,0%,11%[46.1 µM]
CCOC(=O)c1c(C)[nH]c(C(=O)CN2C(=O)NC(C)(c3ccc4ccccc4c3)C2=O)c1C (stereo not given),?,1%,-27%[14.3 µM],?,3%,-8.0%,-3%,?
COCCCNC(=O)C1c2ccccc2Oc2ccccc21,7%,-2%,.,3%,.,.,5%,.
COc1ccccc1C(=O)NCCC(=O)Nc1ncccc1O,8%,-7%,.,?,.,.,-12%,.
Cc1ccccc1-c1nc(CS(=O)(=O)CC(=O)NCCN2CCCC2)c(C)o1,-5%,-5%,.,-17%,.,.,1%,.
Cc1ccc(S(=O)(=O)c2ccc(C)cc2)cc1,5%,-12%,9%,12%,-3%,2.9%,2%,5%&5%
CCN(CC)CCN(C(=O)c1ccc(CN2CCCCC2)o1)C(C(=O)NC1CCCCC1)c1ccc(F)cc1 (stereo not given),1%,3%,0%[46.1 µM],5%,.,.,0%,5µM*
